Source: PubChem BioAssay (ICCB-Longwood Screening Facility, Harvard Medical School)
PV pol inh – poliovirus RNA polymerase inhibition | % elongation, % (compound at 16.7 µg/mL) | poliovirus polymerase elongation, fluorescence polarization; hits give low values | 150,000 tested, 0.66% active; in the data active means % elongation below about 90%; further: some results filed as inactive read as strong as hits
Target sequence (P03300 1749-2209 limits assumed): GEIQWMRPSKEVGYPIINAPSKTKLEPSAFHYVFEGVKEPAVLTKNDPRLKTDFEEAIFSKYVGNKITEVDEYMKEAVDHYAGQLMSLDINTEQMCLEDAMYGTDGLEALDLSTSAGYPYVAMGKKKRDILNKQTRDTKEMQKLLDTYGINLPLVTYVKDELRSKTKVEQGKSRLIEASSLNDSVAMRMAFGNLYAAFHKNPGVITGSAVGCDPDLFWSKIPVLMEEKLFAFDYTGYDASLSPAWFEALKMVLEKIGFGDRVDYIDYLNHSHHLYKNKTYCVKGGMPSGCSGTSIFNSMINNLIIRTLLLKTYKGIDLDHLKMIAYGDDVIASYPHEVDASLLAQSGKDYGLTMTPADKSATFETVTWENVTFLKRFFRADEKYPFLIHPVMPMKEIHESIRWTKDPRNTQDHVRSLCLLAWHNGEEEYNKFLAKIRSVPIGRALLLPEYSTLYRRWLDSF
PV pol inh intensity – further read-out of PV pol inh, marked with its call; % elongation; measured here: total intensity read-out; formula for this scale not given here;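 total fluorescence in place of polarization; lower means less elongation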
Numbers without * were called inactive. Not all compounds are listed; the hit share may differ from the screen's.

SMILES	PV pol inh	PV pol inh intensity
CC(=O)c1ccc(S(=O)(=O)Nc2ccc(-c3ccc(N4CCCCCC4)nn3)cc2)cc1	117	124
Cc1ccc(C(=O)CC2(O)C(=O)N(Cc3ccccc3F)c3ccccc32)cc1 (stereo not given)	109	110
CCOc1ccc(S(=O)(=O)N2CCN(Cc3nc4ccc(C)cc4o3)CC2)cc1	101	108
Cc1ccc(NC(=O)CSc2nc3ccccc3n2CC(=O)N2CCC(C)CC2)cc1C	103	106
CC(C)c1ccc(NC(=O)c2cn(C3CCCCC3)c(=O)c3c2c2ccccc2n3C)cc1	114	114
COc1ccccc1Nc1nn2c(=O)c3ccc(C(=O)N4CCC(C)CC4)cc3nc2s1	102	108
COc1ccc(CC(=O)NCc2nc3cccnc3n2Cc2ccc(C)cc2)cc1OC	110	112
CC(C)Cc1nn2c(=O)cc(COC(=O)c3ccc4c(c3)OCO4)nc2s1	73*	80*
COCCCNC(=O)Cn1c(=O)n(CCCC(=O)NCc2ccc(C)cc2)c(=O)c2ccccc21	113	116
CCOC(=O)c1ccc(NC(=O)c2cc(=O)c3cc(CC)ccc3o2)cc1	111	105
COC(=O)c1cc(S(=O)(=O)N2CCN(c3ccc(C)cc3C)CC2)cn1C	108	114
CCCCCn1c(CCNC(=O)c2ccc(F)cc2)nc2ccccc21	107	108
O=C(Nc1nonc1-c1ccc(Cl)cc1)c1ccccc1F	103	109
Cc1ccccc1CNC(=O)c1ccc(CS(=O)Cc2ccc(Cl)cc2)o1 (stereo not given)	105	110
CC(=O)N1CCc2cc(CNC(=O)Cc3ccc(F)cc3)ccc21	108	112
CCN(CC)C(=O)Cn1ncc2c([nH]c3ccc(C)cc32)c1=O	106	105
COc1ccc(-n2ccnc(NCCc3ccc(Cl)cc3)c2=O)cc1OC	108	116
COc1cccc(NC(=O)Cn2c(=O)n(Cc3ccccc3)c(=O)c3ccccc32)c1	106	107
Cc1c(C(=O)N(Cc2ccccc2F)C2CCS(=O)(=O)C2)oc2ccccc12 (stereo not given)	107	105
Cc1c(C(=O)N(C)C)sc2c1c(=O)n(-c1ccc(Cl)c(Cl)c1)c(=O)n2CC(=O)C(C)(C)C	109	113
O=C(NCCc1ccccc1)C1CCN(c2nc3ccccc3nc2C(F)(F)F)CC1	107	114
O=C(CSc1ncc2c(n1)-c1cc(Cl)ccc1N(Cc1ccccc1)S2(=O)=O)Nc1ccc(F)cc1F	102	110
Cc1cc(C)c2c(CC(=O)Nc3ccc(S(=O)(=O)N4CCCC(C)C4)cc3)coc2c1 (stereo not given)	122	120
COc1ccc(C2CC(=O)c3c([nH]c(C(=O)OC4CCCC4)c3C)C2)cc1OC (stereo not given)	102	104
COc1cc(C2c3c(-c4cc(C)ccc4O)n[nH]c3C(=O)N2Cc2cccnc2)cc(OC)c1OC (stereo not given)	110	112

Continued; the last two above are carried over.
SMILES	PV pol inh	PV pol inh intensity
COc1ccc(C2CC(=O)c3c([nH]c(C(=O)OC4CCCC4)c3C)C2)cc1OC (stereo not given)	102	104
COc1cc(C2c3c(-c4cc(C)ccc4O)n[nH]c3C(=O)N2Cc2cccnc2)cc(OC)c1OC (stereo not given)	110	112
COc1ccc(NC(=O)c2c(NCc3ccc(C)o3)sc3c2CCC(C)C3)cc1 (stereo not given)	108	99
COc1cc(NC(=O)NCC2CCN(Cc3ccccc3Cl)CC2)cc(OC)c1OC	109	109
Cc1cccc(C)c1NC(=O)CN(C)S(=O)(=O)c1ccc2[nH]c3c(c2c1)CCCC3	108	108
Cc1coc2cc3oc(=O)c(CC(=O)NCCc4ccccc4)c(C)c3cc12	113	115
COCCNC(=O)c1sc2ncccc2c1-n1c(C)ccc1C	107	112
COc1ccc(CNC(=O)CCc2c(C)c3ccc(OC)c(C)c3oc2=O)cc1OC	107	111
Cc1ccc(-c2nnc(Nc3cccc(Cl)c3)c3ccccc23)cc1S(=O)(=O)NCC1CCCO1 (stereo not given)	104	105
COc1ccc(NC(=O)CSc2nc(-c3ccc(OC)cc3)[nH]c2-c2ccc(F)cc2)cc1	105	107
Cc1ccc(C(=O)CC2(O)C(=O)N(Cc3ccccc3)c3ccc(Br)cc32)cc1 (stereo not given)	102	105
COc1ccc(CNC(=O)C(=O)Nc2ccccc2OC)cc1	100	105
Cc1cccc(C)c1NC(=O)Cn1c(=O)cc(C)c2c(C)nn(-c3cccc(Cl)c3C)c21	105	108
CCOc1cc(-c2cc(C(=O)O)c3c(-c4ccccc4)[nH]nc3n2)ccc1O	103	104
CCOCCCNC(=O)C(c1ccc(Cl)cc1)N(Cc1cccs1)C(=O)c1ccc(NC(C)=O)cc1 (stereo not given)	102	104
Cc1ccccc1N1CCN(S(=O)(=O)c2nnc(NC(=O)c3ccc(Cl)cc3)s2)CC1	106	108
CCN(CC)c1nc2ccccc2nc1C(=O)Nc1cc(OC)c(OC)c(OC)c1	107	101
CC(C)c1ccc(/C=C(\C#N)c2nc(-c3cc4ccccc4oc3=O)cs2)cc1	106	111
CC(C)c1ccc(NC(=O)CCNS(=O)(=O)c2ccc3c(c2)CCCC(=O)N3)cc1	114	111
CC(=O)c1ccc(NC(=O)CSc2cn(CC(=O)N3CCCCC3)c3ccccc23)cc1	121	117
Cc1ccc(Cn2c(CN3CCN(c4cccc(Cl)c4)CC3)nc3c2c(=O)n(C)c(=O)n3C)cc1	106	107
Cc1cc(C)c2c(=O)cc(C(=O)Nc3ccccc3Cl)oc2c1	112	118
COc1cccc(NC(=O)CCNS(=O)(=O)c2ccc3c(c2)oc(=O)n3C)c1	106	109
CCOC(=O)c1c(-c2ccc(C)cc2)csc1NC(=O)c1ccc(C(C)(C)C)cc1	101	106
CCn1nc(C)c(CCN(C)C(=O)Nc2cc(Cl)ccc2C)c1C	110	108
COc1ccc(NC(=O)C2CCCN(S(=O)(=O)c3ccc4c(c3)CCCN4C(C)=O)C2)cc1 (stereo not given)	111	101
CCC(=O)N1CCc2cc(S(=O)(=O)NCCC(=O)NCc3ccc(OC)cc3)ccc21	108	109

3 records drawn at random from those above:
SMILES	PV pol inh	PV pol inh intensity
Cc1ccccc1N1CCN(S(=O)(=O)c2nnc(NC(=O)c3ccc(Cl)cc3)s2)CC1	106	108
CCOC(=O)c1c(-c2ccc(C)cc2)csc1NC(=O)c1ccc(C(C)(C)C)cc1	101	106
Cc1cccc(C)c1NC(=O)CN(C)S(=O)(=O)c1ccc2[nH]c3c(c2c1)CCCC3	108	108

The listing continues.
SMILES	PV pol inh	PV pol inh intensity
CCCNC(=O)C1CCN(c2ncnc3c2nc2n3CCCCC2)CC1	111	118
CCCc1nn2c(=O)cc(COC(=O)c3ccc(NC(=O)COc4ccccc4F)cc3)nc2s1	116	110
COc1ccc(NC(=O)CSc2cn(CC(=O)N3CCCCC3)c3ccccc23)c(OC)c1	115	111
O=C(COCc1cc(-c2cccs2)on1)NCc1ccc(Cl)cc1	103	112
COc1ccccc1NC(=O)c1ccc2[nH]c(C)cc(=O)c2c1	108	108
CSc1nn(CC(=O)Nc2ccc(C)cc2C)c(N)c1S(=O)(=O)c1ccc(Cl)cc1	110	113
Cc1ccc(NC(=O)Cn2c(=O)n(CC3CCC(C(=O)NC(C)C)CC3)c(=O)c3sccc32)cc1 (stereo not given)	104	113
CCOc1ccccc1NC(=O)Cn1cc(C(=O)c2ccc(Cl)cc2)c(=O)c2ccc(C)nc21	113	115
CCN(CC)CCCNC(=O)Cc1csc2nc(-c3ccc(Cl)cc3)cn12	87	96
CCc1ccc(NC(=O)CN2C(=O)CC(c3ccccc3)Sc3ccccc32)cc1 (stereo not given)	104	104
COc1ccc2c(c1)c1c(c(=O)n(-c3ccccc3C)c(=O)n1Cc1cccc(C(F)(F)F)c1)n2C	109	109
Cc1ccc(-n2c(CCC(=O)O)ccc2-c2cccs2)cc1C	115	119
CCc1ccc(NCc2cc3ccc(OC)cc3n(CC(=O)Nc3ccc(C)c(Cl)c3)c2=O)cc1	107	98
CC1=C(C(=O)Nc2ccc(C)cc2C)C(c2ccc(Br)cc2)n2ncc(C(=O)Nc3cccc(C)c3)c2N1 (stereo not given)	108	98
COc1ccc(NC(=O)C2CCN(S(=O)(=O)c3c(C)noc3/C=C/c3ccc(C)cc3)CC2)cc1Cl	106	108
CCCS(=O)(=O)N1CC(=O)N(c2ccc(C)cc2)C(C)(C(=O)NC2CCCCCC2)C1 (stereo not given)	104	111
CC1CCN(C(=O)CSc2nc3c([nH]c4ccccc43)c(=O)n2-c2ccccc2)CC1	108	112
O=C(CCC1N=C2c3ccccc3N=C(SCc3cccc(F)c3)N2C1=O)NCc1ccc(F)cc1 (stereo not given)	100	108
Cc1cc(NC(=O)Cn2c(=O)nc(-c3ccccc3F)c3cc(Cl)ccc32)ccc1Br	107	108
CCOC(=O)c1c(C)[nH]c(C)c1S(=O)(=O)N(C)CC(=O)Nc1cc(Cl)ccc1OC	101	97
CCOC(=O)c1ccc(NC(=O)CSc2nc3cc4ccccc4cc3[nH]2)cc1	103	106
O=C(NCc1ccccc1)c1cc2ccc3cccnc3c2[nH]1	109	106
CCc1ccc2c(c1)c(=O)c(S(=O)(=O)c1ccc(F)cc1)cn2CC(=O)Nc1ccc(C)cc1C	108	103
Clc1cccc(-n2ncc3c(N4CCCCC4)ncnc32)c1	111	101
COc1ccc(NC(=O)c2sc3nc4n(c(=O)c3c2C)CCC4)cc1Cl	110	104

Further entries follow:
SMILES	PV pol inh	PV pol inh intensity
Cn1cc(S(=O)(=O)N2CCCCC2)cc1C(=O)N1CCN(c2ccc(F)cc2)CC1	102	103
O=c1c2cc3c(nc2ncn1Cc1ccccc1F)CCCC3	106	110
Cc1ccc(Cc2nc3ccccc3nc2SCC(=O)N2CCN(c3ccccc3)CC2)cc1	105	109
O=C(CCCCn1c(=O)c2ccccc2n(Cc2ccc(F)cc2Cl)c1=O)NCCc1ccc(Cl)cc1	110	109
O=C(CSc1nccn1Cc1ccc2c(c1)OCO2)Nc1ccccc1F	111	109
Cc1cc(=O)oc2cc(OCC(=O)Nc3ccc(O)c(C(=O)O)c3)ccc12	100	102
CNc1ccc(-c2nc(-c3ccccn3)no2)cc1[N+](=O)[O-]	110	112
Cc1ccc(C)c(N2CCN(C(=O)c3ccc4[nH]c(C)c(C)c4c3)CC2)c1	102	105
CCN(c1ccccc1)S(=O)(=O)c1nnc(NC(=O)c2ccccc2)s1	102	105
Cc1ccc(-c2nn(CC(=O)NCc3ccccc3)c3c2cnc2ccc(F)cc23)cc1C	104	111
COc1ccc(-n2c(=O)c3c(c4cc(OC)ccc4n3C)n(CC(=O)NCC3CCCO3)c2=O)cc1 (stereo not given)	105	111
COc1ccccc1CC(=O)Nc1ccc2nc(N3CCC(C)CC3)cc(C)c2c1	101	105
CCN(CC)C(=O)Cn1nnc2sc(-c3ccccc3)cc2c1=O	110	115
CC1=C(C(=O)Nc2cc(Cl)ccc2C)C2(CCCCC2)OC1=O	107	112
Cc1cccc(NC(=O)C(=O)NCC(c2cccnc2)N2CCc3ccccc3C2)c1C (stereo not given)	111	117
COc1cccc(NS(=O)(=O)c2ccc3[nH]cc(C(=O)NCCc4ccccc4)c(=O)c3c2)c1	108	106
COc1ccc(N(C)C(=O)c2cc3c(s2)-c2ccccc2OC3)cc1	102	106
COc1cccc(N2CCN(C(=O)Cn3ncc4c3-c3ccccc3OC4)CC2)c1	107	111
COc1ccc(/C=C/c2onc(C)c2S(=O)(=O)N2CCC(C(=O)N3CCC(C)CC3)CC2)cc1	104	105
Cc1cc(N2CCC(C)CC2)nc2ccc(NC(=O)Cc3ccccc3Br)cc12	100	105
Cc1ccc(OCCn2nnc3sc4c(c3c2=O)CCC(C)C4)cc1 (stereo not given)	107	113
O=C(C1CCCN(S(=O)(=O)c2ccc(Br)s2)C1)N1CCN(c2cccc(Cl)c2)CC1 (stereo not given)	113	111
COc1cc(OC)c2c(C)c(CC(=O)N3CCCCC3)c(=O)oc2c1	105	109
O=C(Nc1ccon1)c1cccn(Cc2ccccc2)c1=O	104	110
CCc1nnc(SC(CC)C(=O)Nc2cc(C)ccc2C)c2cc3occc3n12 (stereo not given)	108	110

Sorted by count of non-hydrogen atoms (ascending): six of the compounds above
SMILES	PV pol inh	PV pol inh intensity
O=C(NCc1ccccc1)c1cc2ccc3cccnc3c2[nH]1	109	106
CCOC(=O)c1ccc(NC(=O)c2cc(=O)c3cc(CC)ccc3o2)cc1	111	105
CCOC(=O)c1ccc(NC(=O)CSc2nc3cc4ccccc4cc3[nH]2)cc1	103	106
COc1cccc(NC(=O)Cn2c(=O)n(Cc3ccccc3)c(=O)c3ccccc32)c1	106	107
COc1ccc(NC(=O)CSc2cn(CC(=O)N3CCCCC3)c3ccccc23)c(OC)c1	115	111
CCCc1nn2c(=O)cc(COC(=O)c3ccc(NC(=O)COc4ccccc4F)cc3)nc2s1	116	110

(more compounds)
SMILES	PV pol inh	PV pol inh intensity
CCn1nc(C)c(CCN(C)C(=O)Nc2cc(C)cc(C)c2)c1C	105	99
O=C(COc1ccc(F)cc1)OCc1cc(=O)n2nc(C3CC3)sc2n1	105	110
CCN(CC)CCNC(=O)c1ccc(-c2nc(CS(=O)(=O)c3ccc(C)cc3)c(C)o2)cc1	104	104
COc1ccc(C)c2sc(N3CCN(C(=O)c4ccco4)CC3)nc12	101	107
Cc1ccc(Cn2ccn(Cc3ccc(C)cc3)c(=O)c2=O)cc1	112	108
COc1ccc(Cn2c(C(=O)O)c(CNC3CCCCC3)c3ccc(C)cc32)cc1	108	102
O=C(NCCc1ccc(Cl)cc1)C(=O)NCC(c1ccco1)S(=O)(=O)c1ccccc1 (stereo not given)	98	98
CCN(CC)c1ccc(NC(=O)COCc2cc(-c3ccc4c(c3)OCO4)on2)c(C)c1	112	113
Cn1c(CNC(=O)CSc2nc(-c3cccc(Cl)c3)nc3cc(=O)[nH]n23)nc2ccccc21	122	124
Cc1ccc(N2C(=O)CCSC23C(=O)N(Cc2ccc(F)cc2)c2ccccc23)cc1 (stereo not given)	101	102

Entries of single compounds as entered above. Order of screens: PV pol inh | PV pol inh intensity
Cc1ccc(Cn2ccn(Cc3ccc(C)cc3)c(=O)c2=O)cc1 is listed as 112 | 108
CCN(CC)CCNC(=O)c1ccc(-c2nc(CS(=O)(=O)c3ccc(C)cc3)c(C)o2)cc1 is listed as 104 | 104
